Screening results from PubChem BioAssay.
D2 potentiator – potentiates the human D2 dopamine receptor allosterically | AID 624464 | potentiation, % (test concentration not listed) | DiscoveRx D2 beta-arrestin cells, luminescence, 90 min; 100% = 57 uM dopamine signal | P14416 | actives 0.23% (n = 360,000); active = potentiation of 50% or more; inconclusive = 30% to 50%; inactive = 30% or less;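 further: compound concentration not given in the record; tested on top of an EC20 dose of dopamine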
Target sequence (P14416 whole entry, looked up): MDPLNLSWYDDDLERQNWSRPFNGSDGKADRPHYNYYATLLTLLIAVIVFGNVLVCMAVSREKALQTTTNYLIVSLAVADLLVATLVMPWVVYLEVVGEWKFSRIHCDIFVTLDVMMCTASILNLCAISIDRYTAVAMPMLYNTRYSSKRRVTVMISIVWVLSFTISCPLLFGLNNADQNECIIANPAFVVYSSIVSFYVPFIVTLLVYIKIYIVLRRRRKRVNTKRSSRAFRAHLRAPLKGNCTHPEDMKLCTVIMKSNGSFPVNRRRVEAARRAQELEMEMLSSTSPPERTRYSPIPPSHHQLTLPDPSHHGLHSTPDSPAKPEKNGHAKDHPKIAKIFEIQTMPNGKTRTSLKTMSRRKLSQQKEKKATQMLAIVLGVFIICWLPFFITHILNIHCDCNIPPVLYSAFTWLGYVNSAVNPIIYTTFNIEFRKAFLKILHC
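PathHunter D2 cells, attached overnight at 37 deg C, received compound in DMSO plus dopamine at EC20 (50 nM final) for 90 min at 37 deg C. Beta-arrestin recruitment was read as luminescence after 1 h with detection reagent at ambient temperature.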
ClpP mod – qHTS Assay for Activators of ClpP; actives 1.9% (n = 340,000); purified B. subtilis ClpP, FRET peptide cleavage, 20 min; Potency, µM (top dose mostly 57.5 µM), for the others: at the top dose activity change, negative = active; AID 651965, 2013; active = well fitted falling curve with a large enough effect; inconclusive = small, poorly fitted or top-dose-only effect; inactive = no such curve, though single readings can be large or run the other way; further: potency means the concentration at half of the fitted maximal effect; the source files actives as falling curves though it sought activators and does not explain the sign; nearly all actives have a fitted effect of over 65% in size; many hits overshoot -100%
Target sequence (P80244 whole entry, looked up): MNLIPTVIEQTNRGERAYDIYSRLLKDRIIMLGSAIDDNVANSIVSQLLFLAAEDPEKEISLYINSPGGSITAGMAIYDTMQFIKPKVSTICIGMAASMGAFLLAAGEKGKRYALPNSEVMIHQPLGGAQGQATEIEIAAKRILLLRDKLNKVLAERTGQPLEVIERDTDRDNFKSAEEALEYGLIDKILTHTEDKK
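Purified B. subtilis ClpP, 10 microg/mL final in Tris/HCl pH8 with KCl, BSA, glycerol and Tween-20, cleaved an Abz/nitrotyrosine-quenched decapeptide. Fluorescence (ex 320, em 430) was read at 0 and 20 min at room temperature. Delta was normalized to 5.8 microM ADEP and DMSO/no-enzyme controls.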
Numbers without * were called inactive; ? = inconclusive. A portion of the library, so the mix of outcomes need not match the whole.

entry	SMILES	ClpP mod	D2 potentiator
1	O=C(NCC1CC1)c1cccs1	-3.6%	-6
2	Cn1c(=O)c2cc(NC(=S)NC3CCCCC3)ccc2n1Cc1ccc(Cl)cc1	4.6%	-6
3	CC1(C(=O)N2Cc3ccccc3C2)CCN1C(=O)C1(c2ccccc2)CC1 (centres undefined)	1.6%	-6
4	O=C(Nc1ccc(F)c(Cl)c1)C1Cc2c(-c3ccc4c(c3)OCO4)ccnc2O1 (centres undefined)	4.6%	3
5	Cc1ccc(S(=O)(=O)N2C[C@H]3C(=O)C[C@@H](c4ccccc4)N(S(=O)(=O)c4ccc(C)cc4)[C@H]3C[C@H]2c2cccs2)cc1	-2.6%	-4
6	CN(C)c1ccc2c(=O)c3ccccc3oc2n1	4.6%	-3
7	CCN(C)c1cc2c(c3c1ccn3C)C1CCC2C1 (centres undefined)	-8.9%	-11
8	CC1(C(=O)NS(=O)(=O)c2cccc(F)c2)CCN1C(=O)c1cccc2ccccc12 (centres undefined)	-1.2%	7
9	OC(c1cccc(Cl)c1)c1nc(-c2ccc3c(c2)OCO3)cs1 (centres undefined)	-2.4%	-12
10	CC1(C(=O)NS(=O)(=O)c2ccccc2Cl)CCN1C(=O)CC(c1ccccc1)c1ccccc1 (centres undefined)	-1.3%	-7
11	Cc1noc(C)c1C(=O)N1CCC1(C)C(=O)NS(=O)(=O)c1ccc(C#N)cc1 (centres undefined)	-1.7%	-6
12	c1ccc2c(c1)oc1c(-c3cccc4nccn34)cccc12	4.4%	-17
13	CC(C)c1ccc(NC(=O)C2Cc3c(-c4ccc(Cl)cc4)ccnc3O2)cc1 (centres undefined)	?	-5
14	Cc1oc(-c2cccs2)cc1C(=O)N1CCCC(C)(C(=O)O)C1 (centres undefined)	-16%	-8
15	CC(=O)Nc1cccc(Nc2ccc(C#N)cc2)c1	-23%	3
16	COc1ccc(-c2nn(-c3ccccc3)cc2CNC[C@H]2O[C@@H](n3cnc4c(=O)[nH]c(N)nc43)[C@H](O)[C@@H]2O)cc1	-4.6%	-8
17	CCC(=O)N1CCC1(C)C(=O)Nc1ccc2nc(C)ccc2c1 (centres undefined)	?	8
18	CC1(C(=O)O)CCCN1C(=O)c1cc2ccccc2s1 (centres undefined)	-3.0%	-6
19	CC(c1nc2ccccc2[nH]1)N(C(=O)C1=NNC(=O)CC1)c1ccccc1 (centres undefined)	-6.8%	-5
20	CC1(C(=O)NCc2cccc3ccccc23)CCN1Cc1ccc(-c2ccccc2)o1 (centres undefined)	-22%	-4
21	COc1ccccc1Cc1c(-c2ccc(C#N)cc2)nc2c3ccccc3ccn12	4.2%	-10
22	CC1(C(=O)NCc2ccc(C(F)(F)F)cc2)CCN1Cc1ccc(-c2ccccc2)o1 (centres undefined)	-3.7%	-5
23	CCCCN(CCCC)Cc1cc(=O)oc2cc(C)cc(C)c12	-5.4%	-2
24	CCNC(=S)Nc1ccc2c(c1)c(=O)n(C)n2Cc1cccc(C(F)(F)F)c1	5.2%	12
25	COc1cc(CN2C[C@@H](CO)O[C@@H](n3cnc4c(NC5CCC5)ncnc43)C2)cc(OC)c1OC	-3.1%	-4
26	O=C(NCCO)c1ccc(-c2ccc3nncn3c2)cc1	5.2%	2
27	CC1(C(=O)NS(=O)(=O)C2CC2)CCCN(C(=O)c2c(F)cccc2F)C1 (centres undefined)	1.1%	-6
28	CC1=C(C(=O)N2CCOCC2)CC(CC(=O)NCCCN(C)C)C(=O)N1Cc1ccc(F)cc1 (centres undefined)	-1.4%	-1
29	COc1cccc(-c2cnc(C(O)c3cc(F)cc(Cl)c3)[nH]2)c1 (centres undefined)	-3.5%	-15
30	COc1ccc(-n2nnnc2C(c2cccs2)N2CCN(C/C=C/c3ccccc3)CC2)cc1 (centres undefined)	0.9%	-10

(listing goes on)
entry	SMILES	ClpP mod	D2 potentiator
31	OC[C@H]1O[C@@H](c2nc(-c3nc(-c4ccc(F)cc4)no3)cs2)[C@H](O)[C@@H]1O	-1.9%	-7
32	COCCN1C[C@@H](CO)O[C@@H](n2cnc3c(N4CCCC4)ncnc32)C1	-0.1%	15
33	COCCNC(=O)C1(C)CCCN(C(=O)COc2ccccc2)C1 (centres undefined)	-0.2%	-10
34	CCNC(=O)C1CCCN(C(=O)Cc2ccc3ccccc3c2)CC1 (centres undefined)	0.4%	-8
35	CNc1ccc(-c2ccccc2CO)cn1	4.3%	9
36	CCCCCc1ccc2cc(C#N)ccc2n1	1.5%	-1
37	O=C(Nc1ccc2c(c1)OCCO2)C(c1ccnc2ccccc12)N1CCC(Cc2ccccc2)CC1 (centres undefined)	-7.4%	-5
38	CCCCC(=O)N(C)c1c(CC)nc2c(OCc3cccc(Cl)c3)cccn12	-0.7%	-10
39	COc1cc(Cl)ccc1OC1(C)CCN(Cc2ccccc2OC(F)F)C1 (centres undefined)	-0.5%	-19
40	CCOC(=O)C1=C[C@@H](C(C)(C)C)N(S(=O)(=O)c2ccc(C)cc2)[C@H]1c1ccc(C#N)cc1	-0.1%	-5
41	Cn1ccc2c(-c3ccc4c(c3)OCCO4)cc3c(c21)C1CCC3C1 (centres undefined)	5.0%	-6
42	CC1(C(=O)NCc2cccc3ccccc23)CCN1C(=O)C1(c2ccccc2)CCCC1 (centres undefined)	-0.5%	-1
43	COc1cccc(NC(=O)C2(C)CCN2C(=O)Cc2ccc(-c3ccccc3)cc2)c1 (centres undefined)	-0.9%	-3
44	CC1(Oc2cnc(Cl)c3ccccc23)CCN(Cc2ccc(-c3ccccn3)cc2)C1 (centres undefined)	?	-7
45	Cc1ccc(-c2nc3c(C)cc(Br)cn3c2Cc2ccsc2)cc1	2.6%	4
46	CC(=O)Nc1ccc(C(=O)N2CCCC(c3cc(C(=O)Nc4ccccc4Cl)no3)C2)cc1 (centres undefined)	0.8%	1
47	CC1(C(=O)NS(=O)(=O)Cc2ccccc2C(F)(F)F)CCN1C(=O)c1ccccc1 (centres undefined)	-11%	2
48	CC(=O)Nc1cccc(-c2cnc(NC(C)=O)cn2)c1	-10%	-14
49	O=C(NCc1cccnc1)c1cc(C2CCCCN2C(=O)c2ccccc2)on1 (centres undefined)	-1.4%	6
50	Cc1cn([C@H]2C[C@H](O)[C@@H](/C=C/C(=O)NCCC(c3ccccc3)c3ccccc3)O2)c(=O)[nH]c1=O	-1.1%	-6
51	OC(c1cccc(Cl)c1)c1ncc(-c2ccc(Oc3ccccc3)cc2)[nH]1 (centres undefined)	0.0%	-16
52	NC(COCc1ccccc1)c1csc(Nc2nccc(C(F)(F)F)n2)n1 (centres undefined)	-0.4%	-3
53	CC1=C(C(=O)N(C(C)C)C(C)C)CC(CC(=O)NC2CCCC2)C(=O)N1CCC1=CCCCC1 (centres undefined)	-1.4%	-8
54	Cn1nc(C2CC2)cc1NC(=O)C1(C)CCN1C(=O)CCc1ccccc1 (centres undefined)	0.2%	-6
55	CNc1cncc(-c2cccc(C(=O)N(C)C)c2)n1	4.8%	-4
56	COCCNC(=O)C1(C)CCCN(C(=O)c2cccc(Cl)c2)C1 (centres undefined)	-1.5%	-13
57	O=C(CNS(=O)(=O)Cc1ccccc1)NNc1ccccc1	1.3%	-6
58	Cn1c(=O)c2c(-c3ccccc3)n(-c3cc(Cl)c([N+](=O)[O-])cc3O)cc2n(C)c1=O	-1.6%	1
59	CCNC(=O)C1CCCN(C(=O)c2ccc3ccccc3c2)CC1 (centres undefined)	-4.0%	-4
60	CC1(Cc2ccc(Cl)cc2)C(=O)Nc2c(Cl)ccc(Cl)c21 (centres undefined)	0.4%	-5

The results go on.
entry	SMILES	ClpP mod	D2 potentiator
61	CC(C)Cc1ccc(-c2cc3nc(NCCCn4ccnc4)ccn3n2)cc1	4.7%	30
62	Cc1noc(C)c1-c1ccc(C(=O)NCCC(F)(F)F)c2occc12	-7.9%	-9
63	Cc1onc(-c2ccccc2)c1C(=O)N1CCC(C)(C(=O)O)C1 (centres undefined)	2.1%	-7
64	O=C(NCc1cccnc1)c1csc([C@@H]2C[C@H](O)[C@@H](CO)O2)n1	-1.1%	-1
65	COc1ccccc1Cc1c(-c2ccc(F)cc2)nc2c(C)cc(Br)cn12	-1.9%	-1
66	CS(=O)(=O)N1CCCCC1c1cc(C(=O)Nc2ccccc2)no1 (centres undefined)	0.7%	0
67	OCCCNc1ncnc2c1ncn2[C@H]1CN(Cc2ccc(Cl)cc2)C[C@@H](CO)O1	0.5%	-5
68	CCc1nc2c(OCC(=O)c3ccc(F)cc3)cccn2c1N(C)C(=O)C(C)C	-3.0%	3
69	CC(C)(C)S(=O)N1Cc2cc(C(=O)N3CCOCC3)nc(-c3cccc(Br)c3)c2[C@H]1CCO (some centres undefined)	-4.2%	1
70	CC(=O)Nc1ccc(-c2ccnc3c2CC(C(=O)Nc2cccc(Oc4ccccc4)c2)O3)cc1 (centres undefined)	?	-6
71	Cc1nc2cc(OC3(C)CCN(Cc4ccc(OC(F)(F)F)cc4)C3)ccc2s1 (centres undefined)	0.1%	-15
72	CSc1ccc(CNC(=O)C2(C)CCCN2CC(C)C)cc1 (centres undefined)	-5.7%	-6
73	NCc1csc(Nc2ncccn2)n1	2.5%	-2
74	CC1(C(=O)NCC2CC2)Cc2c(-c3ccccc3)ccnc2O1 (centres undefined)	-6.4%	-7
75	CN(C)c1ccc(-c2ccnc3c2CC(C)(C(=O)Nc2cccc(C(F)(F)F)c2)O3)cc1 (centres undefined)	4.4%	0
76	COc1cccc(C(NC(C)=O)c2nc(-c3cccc(C(F)(F)F)c3)cs2)c1 (centres undefined)	-0.7%	-4
77	CC(=O)NC(c1ccc(F)c(F)c1)c1nc(-c2cnc3ccccc3c2)cs1 (centres undefined)	-21%	-13
78	COc1ccc(NC(=O)Nc2nc(C(N)CC(C)C)cs2)cc1 (centres undefined)	-1.5%	-9
79	CCNC(=O)C1(C)CCCN(C(=O)c2ccc3c(c2)C(C)(C)CCC3(C)C)C1 (centres undefined)	0.9%	-3
80	CCOC(=O)C1=C[C@@H](C(C)(C)C)N(S(=O)(=O)c2ccc(C)cc2)[C@H]1c1ccc(F)cc1	0.5%	-1
81	CC(C)CNc1ncnc2c1ncn2[C@H]1CN(C2CCCC2)C[C@@H](CO)O1	-3.4%	-5
82	CCOC(=O)C1=C(C)N=c2sc(=Cc3cc(Cl)c(OCC(=O)O)c(Cl)c3)c(=O)n2C1c1cccc(OC)c1 (centres undefined)	1.2%	-2
83	CSc1ccc(C(O)c2ncc(-c3cccc(F)c3)[nH]2)cc1 (centres undefined)	1.3%	-20
84	c1cn2cc(-c3ccc(CN4CCOCC4)cc3)ccc2n1	5.1%	-15
85	CC(=O)Oc1ccccc1Cn1c(C)c(C(=O)NCc2ccc(Cl)c(Cl)c2)sc1=O	4.4%	-4
86	NC(c1csc(NC(=O)Nc2ccccc2Oc2ccccc2)n1)c1ccccc1Cl (centres undefined)	-6.8%	10
87	COCCNC(=O)C1(C)Cc2c(-c3ccc(NC(C)=O)cc3)ccnc2O1 (centres undefined)	4.5%	-2
88	N#C/C(=C\c1cccn1S(=O)(=O)c1ccccc1)S(=O)(=O)c1ccc(F)cc1	0.6%	-2
89	COc1cccc(-c2cnc3c(NC(C)=O)cc(-c4ccc(C(=O)NC5CC5)cc4)cn23)c1	-20%	3
90	CN(C)CCCNC(=O)c1cccc(-c2ccc3nncn3c2)c1	-22%	-7

New compounds follow
entry	SMILES	ClpP mod	D2 potentiator
91	CC(=O)N1CCCC(C)(C(=O)Nc2ccc3oc(C)nc3c2)C1 (centres undefined)	-2.0%	-4
92	COC(=O)c1ccc2nc(-c3ccc(OC)c(OC)c3)c(CC3CCCCC3)n2c1	4.7%	0
93	Cc1ccccc1OC1(C)CCN(Cc2ccc3ccccc3c2)C1 (centres undefined)	-18%	-5
94	O=C(/C=C/[C@H]1O[C@@H](n2ccc(=O)[nH]c2=O)[C@H](O)[C@@H]1O)NCc1cccnc1	-0.8%	-9
95	CC(=O)Nc1cc(-c2cccc(C(=O)N(C)C)c2)cn2c(-c3ccc(C(C)=O)cc3)cnc12	-23%	9
96	Cc1noc(C)c1S(=O)(=O)NC(=O)C1(C)CCN1C(=O)CC(c1ccccc1)c1ccccc1 (centres undefined)	2.2%	-4
97	CCc1nc2ccc(C(=O)NCCOc3ccc(OC)cc3)cn2c1N(CC)CCOC	-2.7%	-4
98	CCOc1ccc(-c2ccc(C3=CC(=O)C[C@H](c4ccc(F)cc4)C3)cc2)cc1	-4.9%	-8

As a short view, some entries already given.
entry	SMILES	ClpP mod	D2 potentiator
1	O=C(NCC1CC1)c1cccs1	-3.6%	-6
2	Cn1c(=O)c2cc(NC(=S)NC3CCCCC3)ccc2n1Cc1ccc(Cl)cc1	4.6%	-6
3	CC1(C(=O)N2Cc3ccccc3C2)CCN1C(=O)C1(c2ccccc2)CC1 (centres undefined)	1.6%	-6
4	O=C(Nc1ccc(F)c(Cl)c1)C1Cc2c(-c3ccc4c(c3)OCO4)ccnc2O1 (centres undefined)	4.6%	3
5	Cc1ccc(S(=O)(=O)N2C[C@H]3C(=O)C[C@@H](c4ccccc4)N(S(=O)(=O)c4ccc(C)cc4)[C@H]3C[C@H]2c2cccs2)cc1	-2.6%	-4
6	CN(C)c1ccc2c(=O)c3ccccc3oc2n1	4.6%	-3
7	CCN(C)c1cc2c(c3c1ccn3C)C1CCC2C1 (centres undefined)	-8.9%	-11
